rRNA inh HTS: inhibitors of bacterial rRNA selective over humanized ribosomes; E. coli WT GFP vs humanized-ribosome RFP mutants, fluorescence, 24 h; stronger effect = lower value; DMSO median 0, no signal -100; GFP signal change (wild-type ribosome), % (test concentration not listed); actives 1.6% (n = 350,000); AID 720706;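 active = significant combined selectivity score with lowered wild-type GFP, culture density cut under 30%, mutant RFP and density less affected; inactive = any of these conditions unmet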; also: one replicate is shown; some compounds called inactive have numbers as strong as hits
E coli growth: inhibitors of Escherichia coli growth | AID 1053175 | OD600 absorbance (test concentration not listed) | actives 0.21% (n = 330,000) | OD600, 23 h; stronger effect = lower value;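 active = OD600 absorbance below the run mean of sample wells minus 3.6 SD, in any replicate, cut at about 0.56 in these data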;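 also: stock transfer was 300 nL into about 60 µL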
FGF22 binding: shifts melting point of recombinant human FGF22; AID 651658; actives 1.5% (n = 340,000); recombinant FGF22 thermal shift, SYPRO orange fluorescence; percent of sucrose octasulfate shift, DMSO zero; Q9HCT0; calls only at 9.99 µM;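 active = melting point raised past a set limit in the mean and every replicate; three in four hits are not shown here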
Target sequence (Q9HCT0 whole entry, looked up): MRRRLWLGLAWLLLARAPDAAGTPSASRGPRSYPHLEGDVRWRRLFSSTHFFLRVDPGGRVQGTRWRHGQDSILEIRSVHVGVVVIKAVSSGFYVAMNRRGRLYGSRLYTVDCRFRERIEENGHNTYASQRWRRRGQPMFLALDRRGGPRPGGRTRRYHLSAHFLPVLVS
HNF4A DNA FP: change in binding of human HNF4 alpha to DNA. activity change, % at 10 µM. HNF4a-FITC DNA binding, fluorescence polarization, 1 h. actives 0.3% (n = 360,000). P41235; in the data active = activity change above about 30%, passing the limit was not always enough;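 also: controls were the assay level and a saturating level of protein; the project sought stronger binding though the title names inhibitors; some compounds called inactive have numbers as strong as hits; positive values seem to mean higher polarization but the record does not say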
Target sequence (P41235 whole entry, looked up): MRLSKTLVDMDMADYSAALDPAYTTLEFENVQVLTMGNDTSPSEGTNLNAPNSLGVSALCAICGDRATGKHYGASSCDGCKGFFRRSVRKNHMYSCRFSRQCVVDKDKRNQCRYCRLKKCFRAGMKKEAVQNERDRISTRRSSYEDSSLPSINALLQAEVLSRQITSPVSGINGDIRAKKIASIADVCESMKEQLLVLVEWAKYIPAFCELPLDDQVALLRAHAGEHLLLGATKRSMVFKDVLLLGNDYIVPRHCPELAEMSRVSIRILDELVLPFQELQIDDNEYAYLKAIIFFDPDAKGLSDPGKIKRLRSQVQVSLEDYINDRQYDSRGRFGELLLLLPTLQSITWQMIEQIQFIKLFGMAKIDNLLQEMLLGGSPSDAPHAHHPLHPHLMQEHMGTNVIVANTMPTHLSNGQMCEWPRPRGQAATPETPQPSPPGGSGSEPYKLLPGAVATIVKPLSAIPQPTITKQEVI
ALR inh: inhibitors of human sulfhydryl oxidase ALR. actives 3.8% (n = 290,000). AID 485317. purified ALR, DTT oxidation, H2O2 HRP-luminol luminescence. P55789. inhibition, % (test concentration not listed);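 active = mean and each replicate at 75% or more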;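 also: stock transfer was 7.5 nL into about 7.5 µL; 0% = neutral wells and 100% = wells with inactivated enzyme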
B2AR ag: agonists of human beta-2 adrenergic receptor inducing internalization. AID 504454. Am2.2-beta2AR cells, FAP receptor internalization, flow cytometry; reference of the scale not given here. P07550. actives 0.43% (n = 340,000). response, % (test concentration not listed);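 active = response above a set limit, near 3 SD of response in nonfluorescent compounds, cut at about 42% in these data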;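 also: stock transfer was 100 nL into about 11 µL; a reference agonist was the positive control; negative values mostly stem from fluorescent compounds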
Target sequence (P07550 whole entry, looked up): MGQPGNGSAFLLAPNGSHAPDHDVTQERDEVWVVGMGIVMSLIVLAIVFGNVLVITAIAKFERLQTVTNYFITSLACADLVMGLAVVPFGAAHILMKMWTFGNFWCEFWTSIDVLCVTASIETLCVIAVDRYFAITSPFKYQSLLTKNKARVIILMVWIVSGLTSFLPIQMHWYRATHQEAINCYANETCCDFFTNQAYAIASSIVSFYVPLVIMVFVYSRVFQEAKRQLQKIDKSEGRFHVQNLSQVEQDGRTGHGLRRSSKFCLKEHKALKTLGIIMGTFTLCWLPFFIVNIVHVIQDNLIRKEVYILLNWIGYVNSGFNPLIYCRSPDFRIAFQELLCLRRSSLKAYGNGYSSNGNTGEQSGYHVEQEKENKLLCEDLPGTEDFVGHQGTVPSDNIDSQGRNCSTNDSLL
UCH37 inh: blocks the human deubiquitinase UCH37; Q9Y5K5; purified proteasome/UCH37, Ub-AMC cleavage fluorescence; inhibition, % (concentration not given with the values); actives 0.33% (n = 330,000); AID 588478;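 active = mean of two replicates above 20%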;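 also: 0% = compound-free wells with enzyme and 100% = wells lacking proteasome; stock transfer was 100 nL into about 20 µL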
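Material: human UCH37 enzyme supplied as purified proteasome complex / Amount: 0.15 nM proteasome as dispensed / Buffer or medium: pH 7.4 Tris-HCl (50 mM) with ovalbumin, ATP-MgCl2, DTT / Times: preincubation 30 min, reaction 25 min, room temperature / Technique: AMC fluorescence from Ub-AMC cleavage, excitation 355 nm, emission 460 nm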
rRNA inh HTS OD600: second read-out of rRNA inh HTS, no call of its own (marks repeat the call); OD600 change, %; measured here: OD600 growth;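 optical density of the mix in the first replicate; 0 = DMSO median and -100 = no signal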
rRNA inh HTS RFP: recorded beside rRNA inh HTS, whose call it bears; RFP signal change, %; measured here: RFP humanized mutant strains;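 first replicate; 0 = DMSO median and -100 = no signal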
* = called active by the depositor; i = inactive; x = no result given; & = joins results of further samples. This is a subset; rates above refer to the full screens.

The opening six entries (preview)
SMILES	rRNA inh HTS	rRNA inh HTS OD600	rRNA inh HTS RFP	E coli growth	FGF22 binding	HNF4A DNA FP	ALR inh	B2AR ag	UCH37 inh
NC(Cc1ccc(Cl)cc1)c1csc(Nc2ccc(C(=O)c3ccccc3)cc2)n1 (stereo unspecified)	-59	-83	-20	x	i	2.7	x	x	x
O=C(Nc1nc(-c2ccco2)c(-c2ccco2)s1)c1cnccn1	-4	2	-1.0	x	i	x	-25	x	x
CC(C)NC(=S)N1CCCN(c2ncccc2[N+](=O)[O-])CC1	6	6	0.8	0.65	i	1.0	x	-3	8.0
COc1ccccc1-c1sc2ccccc2c1-c1ccc(OCCN2CCCCC2)cc1	x	x	x	0.64	x	7.9	x	10	-4.0
O=C(NC1CCOc2ccccc21)c1ccc(Cl)nc1 (stereo unspecified)	2	1	-0.1	0.7	i	-0.7	-3	1	4.3
Cc1ccc(N(C)C(=O)c2cnn(-c3ccccc3)c2C)c(C)c1	-15	-12	4.3	0.7	i	-0.5	x	-15	3.5

Main list, from the start:
SMILES	rRNA inh HTS	rRNA inh HTS OD600	rRNA inh HTS RFP	E coli growth	FGF22 binding	HNF4A DNA FP	ALR inh	B2AR ag	UCH37 inh
NC(Cc1ccc(Cl)cc1)c1csc(Nc2ccc(C(=O)c3ccccc3)cc2)n1 (stereo unspecified)	-59	-83	-20	x	i	2.7	x	x	x
O=C(Nc1nc(-c2ccco2)c(-c2ccco2)s1)c1cnccn1	-4	2	-1.0	x	i	x	-25	x	x
CC(C)NC(=S)N1CCCN(c2ncccc2[N+](=O)[O-])CC1	6	6	0.8	0.65	i	1.0	x	-3	8.0
COc1ccccc1-c1sc2ccccc2c1-c1ccc(OCCN2CCCCC2)cc1	x	x	x	0.64	x	7.9	x	10	-4.0
O=C(NC1CCOc2ccccc21)c1ccc(Cl)nc1 (stereo unspecified)	2	1	-0.1	0.7	i	-0.7	-3	1	4.3
Cc1ccc(N(C)C(=O)c2cnn(-c3ccccc3)c2C)c(C)c1	-15	-12	4.3	0.7	i	-0.5	x	-15	3.5
O=C(CN(c1ccc(F)cc1)S(=O)(=O)c1ccc2c(c1)OCCO2)NCc1ccccc1	x	x	x	0.67	x	-1.6	-2	-2	1.8
O=C(c1ccc2ccccc2n1)N1CCN(S(=O)(=O)c2ccccc2)CC1	-5	-8	-2.5	0.7	i	2.4	16	-1	2.1
Cc1ccc(C(=O)NCCOc2cccc(C)c2)cc1	6	3	-0.6	0.67	i	-2.2	-4	2	5.1
CCc1ccccc1NC(=S)N(Cc1cccc(C)c1)c1cccnc1	18	4	1.2	0.71	i	1.5	3	-8	4.0
COc1ccc(/C=C2\N=C3CCCCCN3C2=O)cc1OC	x	x	x	0.71	x	3.5	-36	-2	9.0
O=C(Nc1cccc(S(=O)(=O)N2CCOCC2)c1)c1ccc(N2CCOCC2)c([N+](=O)[O-])c1	-7	-7	-5.8	0.65	i	2.0	-5	37	5.2
COc1cc(C(=O)NCC2CCCO2)cc(OC)c1OC (stereo unspecified)	x	x	x	0.66	x	2.3	x	-7	5.2
Cc1cc(=O)oc2c(C)c(OC(C)C(=O)N3CC[C@@]4(O)CCCC[C@H]4C3)ccc12 (stereo partly specified)	3	-3	4.8	0.77	i	-3.4	x	-2	-23
CCOc1ccc(OCC)c(NC(=O)CSc2nc3c(c(=O)n(C)c(=O)n3C)n2CC)c1	x	x	x	0.69	x	-0.1	-7	8	2.0
COc1cc(/C=C2/SC(=Nc3ccc(O)cc3)NC2=O)cc(OC)c1O	-4	-4	2.7	x	x	5.3	22	-3	x
O=C(COC(=O)c1cc(-c2cccc(Br)c2)nc2ccccc12)NCC1CCCO1 (stereo unspecified)	1	5	-0.6	0.68	x	3.9	-5	1	1.1
COc1cccc(NC(=O)c2sc3ncn(CC(=O)N4CCN(c5ccccn5)CC4)c(=O)c3c2C)c1	11	18	3.4	0.68	i	4.1	-2	0	1.2
CCOc1cc(C(=O)OCC(=O)c2c(C)[nH]c3ccccc23)ccc1OCC(=O)N1CCOCC1	x	x	x	0.7	x	1.4	x	8	5.6
O=C(Nc1ccccc1)c1cccnc1Nc1ccccc1	2	2	-5.2	0.69	x	-4.0	-1	0	4.8
COc1ccc(/C=N/NC(=O)c2cc(-c3ccccc3OC(C)C)nc3ccccc23)cc1CN1CCOCC1	x	x	x	x	x	0.9	-3	10	x
CC1(C)Cc2nc3sc4c(NCCO)ncnc4c3cc2CS1	-9	-9	-0.8	0.65	i	-2.2	12	2	-72
CC(C)NC(=O)Nc1cccc2c1O[C@H](CN(C)C(=O)NC1CCCCC1)[C@H](C)CN([C@H](C)CO)C2=O	-1&7	1&1	4.7&3.1	x	i	2.5	-2	-6	-0.5
Cc1ccc(-c2nn(CC(=O)N3CCOCC3)c(=O)c3ccccc23)cc1S(=O)(=O)N(C)C	4	-1	12	0.71	i	-0.9	-10	-11	-0.3
CC1=NN(C(=O)c2csc(C)c2C)C(O)(C(F)(F)F)C1 (stereo unspecified)	13	9	-1.6	0.7	i	3.0	-1	-2	2.1
COC(=O)C(NC(=O)c1ccc(F)cc1)(Nc1nc(C)cs1)C(F)(F)F (stereo unspecified)	x	x	x	0.7	x	-2.3	10	7	0.0
N#Cc1ccccc1CN1C(=O)c2ccccc2S1(=O)=O	9	15	-0.9	0.68	i	3.4	-6	-4	-1.3
CCOC(=O)c1cc(NC(=O)COC)ccc1O	x	x	x	0.73	x	x	0	x	0.2
O=C(NNc1ccccc1Cl)C(O)(c1cccc(C(F)(F)F)c1)c1cccc(C(F)(F)F)c1	-6	3	-3.3	0.68	i	-0.6	-16	18	5.6
CCOc1ccc(CNC(=O)C(CC)n2nc(C)n3c(cc4occc43)c2=O)cc1OC (stereo unspecified)	x	x	x	0.69	x	-1.8	x	-2	-0.5
C(=N\NCc1ccccc1)/c1ccc2nccnc2c1	6	3	-0.8	x	i	-4.8	x	-1	x
CC(C)OC(=O)CSc1nc(-c2ccc(F)cc2)cc(C(F)(F)F)n1	x	x	x	0.71	x	2.4	-2	13	-0.9
CN1CCC(NC(=S)Nc2cccc([N+](=O)[O-])c2)CC1	6	19	-3.2	0.64	i	4.6	-21	-4	1.8
O=C(OCC(=O)N1CCOCC1)c1ccc(Cl)nc1	13	13	-5.1	0.71	i	0.2	-10	2	0.5
O=C(Oc1cccc(/C=N/NC(=O)c2ccccn2)c1)c1ccc([N+](=O)[O-])cc1	1	19	4.6	x	i	-3.5	-15	0	x
CCONC(=O)Nc1ccccc1	x	x	x	0.69	x	3.1	-2	7	0.2
Cc1cccc(N2C(=O)c3cccc4c(N5CCCCC5)c([N+](=O)[O-])cc(c34)C2=O)c1C	x	x	x	x	x	1.1	-1	7	x
CCC(=O)NC(c1ccc(C)cc1)c1cc(Cl)c2cccnc2c1O (stereo unspecified)	x	x	x	x	x	-0.7	-8	1	0.6
CN(Cc1ccccc1)CC(O)COc1ccc(CNCc2ccc(Cl)s2)cc1 (stereo unspecified)	1	-12	1.4	0.64	i	-7.5	-22	13	2.2
Cc1cc(C(=O)NNC(=O)C(C)(C)Oc2ccc(Cl)cc2)c(C)o1	-6	-8	6.6	0.71	i	3.5	7	-1	0.8
CCOC(=O)CSc1nnc(NC(=O)CCc2ccccc2)s1	3	7	0.4	0.71	i	3.4	2	19	2.6
Cc1cccc(C(=O)NCC(=O)NCCCSc2ccccc2)c1	0	-4	1.1	0.65	x	2.2	-2	-10	1.3
O=C(O)COc1ccccc1/C=N/NC(=O)c1cc(-c2ccccc2)nc2ccccc12	8	-1	-2.5	x	i	4.3	30	-15	x
O=S1(=O)N=C(N2CCN(Cc3ccc4c(c3)OCO4)CC2)c2ccccc21	0	-3	-1.9	0.65	i	0.0	-1	-6	1.6
Cc1c(-c2ccccc2)oc2c(C(=O)N3CCN(c4ccc([N+](=O)[O-])cc4)CC3)cccc2c1=O	-2	5	-4.3	0.74	i	-2.2	-7	2	4.9
CCCC(=Nc1ccccc1OC)C1=C(O)CC(c2ccccc2)CC1=O (stereo unspecified)	9	1	-4.4	0.73	i	2.1	0	-4	4.2
CC(CC(=O)c1ccccc1)=NCCCN=C(C)CC(=O)c1ccccc1	-11	-36	1.7	x	i	3.8	x	x	x
CC(C)C(NC(=O)c1ccco1)C(=O)OCc1cc([N+](=O)[O-])cc2c1OCOC2 (stereo unspecified)	-9	-5	3.4	0.71	i	-2.8	-9	-17	5.4
CCOc1ccccc1NC(=O)CSc1nnc(CCC(=O)Nc2ccccc2F)n1C	2	2	1.5	0.62	i	-3.4	2	-4	1.8
O=C(c1cc2ccccc2s1)N1CCOCC1	-1	-5	-2.3	0.63	i	-0.4	x	6	1.0
CCCCOC(=O)c1ccc(NC(=O)c2cnccn2)cc1	x	x	x	0.73	x	3.5	x	7	3.6
COc1ccc(Cn2nnc3c(C)n[nH]c(=O)c32)cc1	10	13	-0.4	0.65	i	0.4	-6	-6	2.9
COc1ccc2nc(/C=N/NC(=O)[C@@H]3CCCN3C(=O)OC(C)(C)C)ccc2c1	-12	-10	2.6	x	i	-2.1	x	-4	x
Cc1ccc(NS(=O)(=O)c2cc(C(=O)NCCSC3CCCCC3)ccc2C)cc1	x	x	x	0.74	x	-0.2	17	-7	5.7
Oc1ccccc1/C=N/Nc1ncc(Br)cn1	-4	-2	-6.6	x	i	1.2	-3	-13	x
COc1ccccc1CN1CCN(C(=O)c2ccco2)CC1	6	6	-0.1	0.62	i	-1.6	-5	12	2.3
CC(=O)N1CCc2cc(S(=O)(=O)NCCC(=O)Nc3ccc4c(c3)OCCO4)ccc21	x	x	x	0.64	x	-2.2	-1	9	3.2
CCC1=NN2C(=N)/C(=C/c3c(C)nn(-c4ccccc4)c3Cl)C(=O)N=C2S1	-12	4	12	0.69	i	0.3	54	8	-1.2
C[C@H](NC(=O)c1nc[nH]c1C(=O)N[C@@H](Cc1ccccc1)C(=O)OC(C)(C)C)c1ccccc1	9	-6	11	x	i	0.8	x	-4	-0.3
CCc1ccccc1NC(=O)C(C)n1nc([N+](=O)[O-])c(Br)c1C (stereo unspecified)	4	5	-6.5	0.68	i	-1.6	-11	-2	-3.4

Following part:
SMILES	rRNA inh HTS	rRNA inh HTS OD600	rRNA inh HTS RFP	E coli growth	FGF22 binding	HNF4A DNA FP	ALR inh	B2AR ag	UCH37 inh
CCOc1ccccc1C1CC(c2ccc(Cl)cc2)Nc2nc(N)nn21 (stereo unspecified)	-10	-22	-2.2	0.74	i	0.8	2	11	-0.6
Cc1sc2nc(NCCO)[nH]c(=O)c2c1C	-1	-1	0.1	0.71	i	2.2	64	4	6.3
CN(CC(=O)NCc1ccccn1)S(=O)(=O)c1cc(Cl)ccc1Cl	3	2	0.1	0.7	x	1.2	-22	0	0.2
Cc1cc(C)n2nc(C(=O)NC3CCCc4ccccc43)nc2n1 (stereo unspecified)	5	0	-0.2	0.74	i	1.9	-6	-4	5.5
CCOC(=O)N1CCN(C(=O)COc2ccc(S(=O)(=O)NCC(C)C)cc2C)CC1	x	x	x	0.76	x	-1.8	-11	-2	-1.0
N#CC(=C(O)COC(=O)CCC1CCCCC1)c1nc2ccccc2[nH]1	19	9	13	0.67&0.69	i	14	x	14	-1.5&-0.1
Cc1ccc(C)c(CSc2nnc(-c3cccnc3)n2N)c1	x	x	x	0.62	x	-3.7	-2	7	-0.2
CCOc1nc(Nc2ccccc2)nc(OCC)n1	-6	-6	-7.4	0.66	x	2.0	-2	-7	1.2
Cn1nccc1-c1ccc(C(=O)Nc2cccc(NS(C)(=O)=O)c2)c2occc12	-8	-5	-5.0	x	i	-4.3	x	x	x
COc1ccc(/C=N/NC(=O)CCc2c(C)n[nH]c2C)cc1OC	x	x	x	x	x	3.2	7	0	x

Bioassay records deposited in PubChem by several laboratories.
